D2 PAM – positive allosteric modulators of human D2 dopamine receptor; AID 624464; DiscoveRx D2 beta-arrestin cells, luminescence, 90 min; 100% = 57 uM dopamine signal; 360,000 tested, 0.23% active; P14416; potentiation, % (test concentration not listed); active = potentiation of 50% or more; inconclusive = 30% to 50%; inactive = 30% or less;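 also: compound concentration not given in the record; tested on top of an EC20 dose of dopamine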
Target sequence (P14416 whole entry, looked up): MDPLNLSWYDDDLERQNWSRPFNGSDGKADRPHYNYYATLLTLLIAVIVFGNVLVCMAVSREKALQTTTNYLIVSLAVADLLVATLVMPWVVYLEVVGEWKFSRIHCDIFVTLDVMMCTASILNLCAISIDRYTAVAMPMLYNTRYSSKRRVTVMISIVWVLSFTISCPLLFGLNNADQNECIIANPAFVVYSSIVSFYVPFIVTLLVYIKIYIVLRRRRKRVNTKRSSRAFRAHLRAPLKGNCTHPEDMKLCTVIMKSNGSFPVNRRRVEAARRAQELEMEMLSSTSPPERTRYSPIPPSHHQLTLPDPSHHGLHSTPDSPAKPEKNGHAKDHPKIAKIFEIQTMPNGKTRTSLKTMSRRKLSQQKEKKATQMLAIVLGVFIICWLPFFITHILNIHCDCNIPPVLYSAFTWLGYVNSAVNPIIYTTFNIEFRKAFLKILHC
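PathHunter D2 cells, attached overnight at 37 deg C, received compound in DMSO plus dopamine at EC20 (50 nM final) for 90 min at 37 deg C. Beta-arrestin recruitment was read as luminescence after 1 h with detection reagent at ambient temperature.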
gsp ag – agonists of gsp mutant (McCune-Albright syndrome) | gsp mutant cells, cAMP HTRF, 30 min; control for the full effect not named in the record | Potency, µM (series often up to 76.9 µM), without a hit: at the top dose activation (cAMP increase), actives largely listed as activators | 340,000 tested, 0.13% active; active = well fitted activation curve with a large enough effect; inconclusive = small, poorly fitted or top-dose-only effect, or another doubt; inactive = no such curve, though single readings can be large or run the other way; cell line not stated here;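 also: phosphodiesterase inhibitor Ro 20-1724 added with compounds to block cAMP breakdown; potency is read from the fitted curve at half-maximal effect; nearly all actives have a fitted effect of over 60% in size; about a fifth of the inactives were tested at one dose only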
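Cells in DMEM/10% FBS with G418 were pretreated with compounds in DMSO plus […] (300 uM stock) for 30 min at 37C. cAMP was measured by HTRF (cAMP-d2 plus anti-cAMP antibody-K) after 30 min at room temperature.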
CtBP-E1A inh – blocks the CtBP interaction with E1A. activity change, % (concentration not given with the values). 340,000 tested, 0.49% active. AlphaScreen GST-E1A/His-CtBP binding, 1536-well; active compounds read low; control for the full effect not named in the record; in the data active means activity change below about -65%; inconclusive means about -30% to -65%; inactive means above about -30%; also: % is scaled to controls: 0 for no effect and ±100 for the full control effect
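GST-E1A and His-tagged CtBP (125 nM each as 5X stock) were preincubated with pin-transferred compound for 2 h at 37 °C in the dark, then glutathione donor and nickel acceptor beads were added for 1 h before AlphaScreen reading.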
Six1-Eya2 inh – blocks human Six1 binding to Eya2; Q15475+O00167; 360,000 tested, 0.56% active; activity change, % (no concentration beside the values); AID 651725; AlphaScreen GST-Six1/His-Eya2 binding, biochemical; active compounds read low; control for the full effect not named in the record; in the data active = activity change below about -65%; inconclusive = about -30% to -65%; inactive = above about -30%; also: % is scaled to controls: 0 for no effect and ±100 for the full control effect
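AlphaScreen luminescence read after one hour at 37 °C in darkness. Pin-transferred compounds met GST-Six1 and His-Eya2 protein (5X stock 250 nM/500 nM) plus glutathione donor and Ni-chelate acceptor beads (5X, 50 ug/mL).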
D2 ag – activates the human D2 dopamine receptor; P14416; DiscoveRx PathHunter D2 beta-arrestin, luminescence, 90 min; 100% = 57 uM dopamine signal; activation, % (concentration not given with the values); 360,000 tested, 0.084% active; in the data active = activation above about 40%; inconclusive = about 15% to 40%; inactive = below about 15%; also: compound concentration not given in the record; the text of the record calls up to 30% inactive
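Agonist mode: compounds alone added to overnight-plated D2 PathHunter cells for 90 min at 37 C, with 57 uM final dopamine (EC100) defining full response. Beta-arrestin recruitment detected by chemiluminescent reagent, read after 1 h at ambient temperature.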
gsp antag – gsp mutant antagonism; 340,000 tested, 0.4% active; gsp-mutant cells, cAMP HTRF, 30 min; control for the full effect not named in the record; Potency, µM (doses to about 76.9 µM), without a hit: top-dose activity change, negative = inhibition, hits mostly inhibitors; AID 624288; active = falling curve of any shape with a large fitted effect; inconclusive = falling curve, mostly with a smaller effect; inactive = flat or rising curve; cell line not stated here;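 also: intracellular cAMP measured with PDE inhibitor Ro 20-1724 present during compound exposure; potency is read from the fitted curve at half-maximal effect; % is scaled to controls: 0 for no effect and ±100 for the full control effect; nearly all actives have a fitted effect of over 65% in size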
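Cells, 2000/well, grown 16–24 h in DMEM 10% FBS with 0.5 mg/ml G418, then compounds plus […] (300 uM addition stock), 30 min at 37C. cAMP read by HTRF (cAMP-d2 and anti-cAMP antibody-K in lysis buffer) after 30 min RT.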
* marks the source's active call; other numbers are inactive results; ? = inconclusive; · = no result given; [ ] = another dose, or the depositor's remark.

Every second line gives: gsp ag | CtBP-E1A inh | D2 PAM | Six1-Eya2 inh | gsp antag | D2 ag
O=C(NNC(=O)C1CCCC1)c1ccc(F)cc1
    -8%[15.4 µM] | 8 | -1 | 1 | 7% | -1.7
CCCCN(C(C)=O)c1c(N)n(CCC)c(=O)n(CC(=O)Nc2cc(Cl)cc(Cl)c2)c1=O
    -1%[15.4 µM] | 6 | -9 | 6 | -4% | -2.6
Cc1ccccc1N(CC(=O)NC1CCCCC1)C(=O)CCCC(=O)Nc1ccccn1
    -10% | 0 | -1 | 10 | 5% | 4.5
CC(NC(=O)c1ccc(Cn2cc([N+](=O)[O-])cn2)cc1)c1ccccc1 (stereo not drawn)
    11%[15.4 µM] | -19 | -11 | -1 | 6% | -3.6
Cc1nc2cc(NC(=O)c3ccco3)ccc2n1C
    27% | 5 | 0 | 9 | 13% | 6.9
CCOC(=O)N1CCC(N2C(=O)c3ccccc3C2Nc2ccc3c(C)cc(=O)oc3c2)CC1 (stereo not drawn)
    ? | 4 | -2 | -2 | -12% | -1.9
Cc1ccc2nc3n(c2c1)CCCN3
    · | 0 | -78 | 2 | -3% | -3.9
COc1cc(NC(=O)C2CCCO2)c(C(=O)O)cc1OC (stereo not drawn)
    -1% | 8 | 4 | 5 | 2% | 2.3
O=C(Nc1ccccc1OC(F)F)c1cccc(S(=O)(=O)N2CCCC2)c1
    -16% | 2 | -4 | 1 | ? | 4.1
O=C(/C=C/c1cccc(F)c1)N1CCc2ccccc21
    7% | -7 | -11 | -3 | 1% | -1.9
CC(C)CC1CC(C)(c2csc(NNC(=O)c3ccccc3)n2)OC1=O (stereo not drawn)
    -34%[inhibitor] | 1 | -4 | 5 | 7% | -4.4
O=C(COc1ccc(Cl)cc1Cl)NC(=O)N1CCOCC1
    19% | -2 | -35 | 5 | 4% | -1.0
CN(Cc1ccccc1)C(=O)COC(=O)c1cc([N+](=O)[O-])ccc1N1CCOCC1
    ? | -1 | -18 | -8 | -15% | 1.7
Cc1c(CN(C)C(=O)C2CCC(=O)N(Cc3ccccc3F)C2)[nH]c2ccccc12 (stereo not drawn)
    -76%[inhibitor] | -1 | -16 | -1 | · | 1.8
CCC(=O)c1ccc(OCC(O)CNCc2ccc(F)cc2)cc1 (stereo not drawn)
    -16% | -17 | -8 | -12 | 11% | -2.9
COc1ccc2cc(C(=O)COC(=O)COc3ccc4c(C)cc(=O)oc4c3)ccc2c1
    ? | 19 | -3 | 44 | 2% | -5.8
CC(C)(C)C(=O)Nc1nc2c(s1)CN(Cc1ccccc1)CC2
    3%[15.4 µM] | · | -14 | -3 | -7% | -1.4
O=C(COC(=O)c1ccccc1)Nc1ccccc1Br
    8%[15.4 µM] | 9 | -8 | -4 | 10% | -0.9
COc1cc2c(cc1OC)C(c1ccccc1F)NCC2 (stereo not drawn)
    ? | · | -21 | 17 | 11% | -2.3
Cc1nnc(Cl)c2nn(-c3ccccc3F)c(C)c12
    -4% | 2 | 12 | 1 | 7% | -1.8
Cc1cc(C(C)(C)C)oc1C(=O)NCCCNC(=O)c1oc(C(C)(C)C)cc1C
    -29% | 2 | 4 | -1 | -9% | -4.1
C[C@@H]1NC(=O)c2cc([N+](=O)[O-])cc(I)c2OCC[C@@H](C(=O)NC(CC(=O)O)C(N)=O)NC(=O)[C@H](CC(N)=O)NC1=O (stereo partly drawn)
    -55% | 0 | -16 | -6 | 8% | -3.9
Cc1ccc(N2C(=O)C3C4C=CC(C4)C3C2=O)cc1 (stereo not drawn)
    14% | 11 | -4 | 1 | 12% | -2.8
Cc1ccc(-n2c(O)c(/C=N/c3ncn[nH]3)c3ccccc3c2=O)cc1
    -16% | -14 | -3 | -23 | -16% | 2.7
CC(CC(=O)NCC1CCCO1)c1ccccc1 (stereo not drawn)
    -6% | 0 | -5 | 9 | 12% | -1.1
COc1ccc(CCNS(=O)(=O)c2cccc(S(=O)(=O)N3CCCC3)c2)cc1OC
    -52%[inhibitor] | -4 | 4 | 4 | -7% | 1.5
COc1ccc(S(=O)(=O)N(C)CC(=O)Nc2ccc3c(c2)OCCO3)cc1OC
    -2% | 2 | -6 | 2 | 7% | -3.0
CC(=O)Nc1ccc(S(=O)(=O)N(CC(=O)NCC2CCCO2)Cc2ccccc2Cl)cc1 (stereo not drawn)
    -39%[inhibitor] | 0 | 8 | -5 | · | 4.6
O=C(CCNS(=O)(=O)c1ccc(OC(F)(F)F)cc1)N1CCN(C/C=C/c2ccccc2)CC1
    -15% | -1 | -20 | -7 | 6% | 4.5
Cc1ccccc1NC(=O)COC(=O)c1cccc(S(=O)(=O)N2CCCCC2)c1
    44% | -23 | -3 | 2 | 3% | -1.3

Rewritten in markdown: part of the list above
| Structure | gsp ag | CtBP-E1A inh | D2 PAM | Six1-Eya2 inh | gsp antag | D2 ag |
| --- | --- | --- | --- | --- | --- | --- |
| COc1cc2c(cc1OC)C(c1ccccc1F)NCC2 (stereo not drawn) | ? | · | -21 | 17 | 11% | -2.3 |
| Cc1nnc(Cl)c2nn(-c3ccccc3F)c(C)c12 | -4% | 2 | 12 | 1 | 7% | -1.8 |
| Cc1cc(C(C)(C)C)oc1C(=O)NCCCNC(=O)c1oc(C(C)(C)C)cc1C | -29% | 2 | 4 | -1 | -9% | -4.1 |
| C[C@@H]1NC(=O)c2cc([N+](=O)[O-])cc(I)c2OCC[C@@H](C(=O)NC(CC(=O)O)C(N)=O)NC(=O)[C@H](CC(N)=O)NC1=O (stereo partly drawn) | -55% | 0 | -16 | -6 | 8% | -3.9 |
| Cc1ccc(N2C(=O)C3C4C=CC(C4)C3C2=O)cc1 (stereo not drawn) | 14% | 11 | -4 | 1 | 12% | -2.8 |
| Cc1ccc(-n2c(O)c(/C=N/c3ncn[nH]3)c3ccccc3c2=O)cc1 | -16% | -14 | -3 | -23 | -16% | 2.7 |
| CC(CC(=O)NCC1CCCO1)c1ccccc1 (stereo not drawn) | -6% | 0 | -5 | 9 | 12% | -1.1 |
| COc1ccc(CCNS(=O)(=O)c2cccc(S(=O)(=O)N3CCCC3)c2)cc1OC | -52%[inhibitor] | -4 | 4 | 4 | -7% | 1.5 |
| COc1ccc(S(=O)(=O)N(C)CC(=O)Nc2ccc3c(c2)OCCO3)cc1OC | -2% | 2 | -6 | 2 | 7% | -3.0 |
| CC(=O)Nc1ccc(S(=O)(=O)N(CC(=O)NCC2CCCO2)Cc2ccccc2Cl)cc1 (stereo not drawn) | -39%[inhibitor] | 0 | 8 | -5 | · | 4.6 |

(next part)
Every second line gives: gsp ag | CtBP-E1A inh | D2 PAM | Six1-Eya2 inh | gsp antag | D2 ag
O=C(NN=Cc1cccc([N+](=O)[O-])c1)c1cc(-c2cccnc2)nc2ccccc12
    -2% | -1 | -1 | 1 | -13% | 3.4
COCC(C)NS(=O)(=O)c1ccc(C)cc1 (stereo not drawn)
    -34%[inhibitor] | 6 | -9 | 5 | 14% | 0.5
Cc1cc(C)c(S(=O)(=O)Nc2cccc(S(=O)(=O)NC3=NCCC3)c2)c(C)c1
    -1%[15.4 µM] | 2 | -1 | -2 | · | -0.2
Cc1ccccc1/C=N\NC(=O)c1ccc(Cn2cccn2)o1
    7%[15.4 µM] | 0 | -10 | -17 | 2% | -3.4
CN(C(=O)c1ccc(NC(=O)C2CCCN(C(=O)OC(C)(C)C)C2)cc1)C1CCCC1 (stereo not drawn)
    -7% | 2 | -7 | -1 | -7% | -1.1
Cn1nc(-c2ccc(N3CCOCC3)c(NS(=O)(=O)c3ccc(Cl)cc3)c2)c2ccccc2c1=O
    20% | 2 | ? | 2 | 6% | -3.3
Cc1ccc(C2CC(c3ccc(Cl)cc3)n3nc(N)nc3N2)cc1 (stereo not drawn)
    -14% | 2 | -2 | -3 | 5% | -0.3
Cc1cc(C)nc(NS(=O)(=O)c2ccc(NC(=O)Nc3ccccc3)cc2)n1
    0% | -2 | -1 | -3 | -3% | 1.2
Cc1[nH][nH]c(=O)c1N=Nc1ccc(S(N)(=O)=O)cc1
    -45%[inhibitor] | -4 | -16 | -14 | -5% | -8.3
Cc1ccccc1NS(=O)(=O)c1cc(S(C)(=O)=O)ccc1Cl
    -1% | 7 | 2 | 8 | -2% | -2.1
Cc1cccc(Nc2nnc(SCC(=O)Nc3ccccc3[N+](=O)[O-])s2)c1
    ? | -6 | 12 | ? | -18% | -2.2
CCOC(=O)Cn1c(CN2CCOCC2)nc2c1c(=O)[nH]c(=O)n2C
    ? | -1 | -5 | 7 | -4% | -3.0
CC(C(=O)NC1CCCCC1)N1CCN(S(=O)(=O)c2cccs2)CC1 (stereo not drawn)
    30% | -17 | -5 | 4 | -4% | -6.0
CCOC(=O)C1(Cc2ccccc2)CCCN(C2CCCC2)C1 (stereo not drawn)
    -2% | 0 | -10 | 6 | 10% | -4.8
COC(=O)c1ccc(N2CCOCC2)c(NC(=O)c2ccco2)c1
    1%[15.4 µM] | 3 | -8 | 8 | -9% | -7.7
Cc1ccccc1C(=O)Nc1ccccc1
    -47%[inhibitor] | 9 | -5 | 9 | -4% | 1.6
O=C(O)c1ccccc1-c1ccc(C=c2sc3nc4cc(Br)cnc4n3c2=O)o1
    · | ? | -9 | -69* | · | -6.2
Cc1ccc2c(c1)c1c3n2CCN(C(=O)Cn2c(-c4ccccc4)noc2=O)C3CCC1 (stereo not drawn)
    -54%[inhibitor] | -23 | 15 | -20 | -12% | 4.6
OCCNc1nc(Nc2ccc(Cl)c(Cl)c2)nc2ccccc12
    -30% | · | -46 | -8 | -20% | -3.1
O=C(CN1CCN(c2ccc(F)cc2)CC1)NCc1ccc(Cl)cc1
    -14% | · | -1 | -5 | 3% | 8.3
CCNC(=S)Nc1ccc(Cc2nc3ccccc3[nH]2)cc1
    3% | -8 | -10 | 8 | 2% | -1.0
CC(=O)Nc1ccc(S(=O)(=O)NCCC(=O)OCC(=O)c2cccc(Br)c2)cc1
    16% | 0 | -42 | -2 | -14% | -12
O=C(Cc1nnc(NC(=O)Nc2ccccc2)s1)Nc1ccccc1
    -2% | 3 | -1 | -2 | 12% | -4.8
COCCCNC(=O)c1cccc(OC)c1OC
    16% | -1 | -10 | 6 | 5% | -6.8
COc1cccc(/C=N/n2nnnc2N)c1O
    -30%[15.4 µM] | 35 | 0 | 12 | 4% | -3.5
CCCCc1ccc(-n2nnnc2SCC(=O)Nc2cc(OC)c([N+](=O)[O-])cc2C)cc1
    1% | -6 | -12 | -14 | -11% | -5.3
Cc1ccsc1CN(C)CC(=O)NCC(=O)Nc1ccc(F)c(F)c1F
    -14% | 5 | -2 | 1 | 7% | -2.7
Cc1cc(C)c2c(=O)[nH][nH]c2n1
    -25% | 6 | -14 | -5 | -12% | -3.2
NC(=O)c1ccccc1OCC(=O)NC12CC3CC(CC(C3)C1)C2
    -19% | -6 | -8 | -2 | 7% | -2.4
CC1C(=O)C(C)C(c2cc(Br)ccc2O)NC1c1cc(Br)ccc1O (stereo not drawn)
    -32%[inhibitor] | -4 | -8 | 4 | ? | -1.5
O=C(O)CSCCC(=O)Nc1ccc(F)cc1
    5% | 39 | -4 | 34 | 11% | -1.6
O=[N+]([O-])c1cccc(S(=O)(=O)NCC2CCCO2)c1 (stereo not drawn)
    6% | 16 | 0 | 10 | 4% | 3.2
